Screens: PubChem BioAssay, National Center for Advancing Translational Sciences (NCATS)
Cruzain noTriton: blocks cruzain activity in detergent-free assay; P25779; 200,000 compounds, 2.3% hits; Potency, µM, inactives show max response, negative = inhibition, most hits filed as inhibitors; purified cruzain, Z-FR-AMC fluorescence, no detergent; active means well fitted curve in the direction sought with a large enough effect; inconclusive means small, poorly fitted or top-dose-only effect, or another doubt; inactive means no such curve, though single readings can be large; an effect the other way counts as inactive or inconclusive;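 further: plate controls were enzyme without inhibitor for no effect and buffer without enzyme for full effect; nearly all actives have a fitted effect of over 40% in size; top concentration of the series not given in the record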
Target sequence (P25779 123-467 limits assumed): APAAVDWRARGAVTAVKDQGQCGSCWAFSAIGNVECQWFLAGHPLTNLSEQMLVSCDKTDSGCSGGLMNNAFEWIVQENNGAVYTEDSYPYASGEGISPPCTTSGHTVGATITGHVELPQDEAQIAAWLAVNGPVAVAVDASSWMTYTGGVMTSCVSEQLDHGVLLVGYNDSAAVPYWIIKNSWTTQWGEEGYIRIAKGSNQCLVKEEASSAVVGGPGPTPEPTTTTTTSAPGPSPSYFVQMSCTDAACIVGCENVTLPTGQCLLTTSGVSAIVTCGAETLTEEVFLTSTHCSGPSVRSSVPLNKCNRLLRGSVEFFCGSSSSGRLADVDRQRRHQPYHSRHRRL
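Purified cruzain at 1.5 nM, pre-incubated 15 min with compound at room temperature in 100 mM sodium acetate pH 5.5, 5 mM DTT, 0.00005% Triton X-100. Reaction started with 2 uM Z-FR-AMC; AMC fluorescence increase over 60 s gives rate.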
Lassa entry inh: Lassa virus entry inhibition; AID 540256; Lassa virus pseudotype entry inhibition, cell reporter; control for the full effect not named in the record; Potency, µM (top dose mostly 37.9 µM), for the others: at the highest dose activity change, negative = inhibition, actives largely listed as inhibitors; 300,000 compounds, 1.2% hits; active means well fitted inhibition curve with a large enough effect; inconclusive means small, poorly fitted or top-dose-only effect, or effect the other way; inactive means flat fitted curve, though single readings scatter; tested in HEK293 cells; further: on the % scale 0 is the no-effect control and ±100 the full control effect; nearly all actives have a fitted effect of over 50% in size; luciferase read-out
SARS PLP yeast: SARS-CoV PLP inhibition in yeast. AID 485353. Potency, µM (highest dose often 32.9 µM), for inactives: at the top dose activity, positive = growth rescue. 330,000 compounds, 0.19% hits. S. cerevisiae expressing SARS-CoV PLpro, growth rescue; control for the full effect not named in the record; further: 0% is about no effect; nearly all actives have a fitted effect of over 55% in size; growth read by luminescence after 48 h
2A StopGo: lowers the luciferase signal of an FMDV 2A StopGo reporter; 410,000 compounds, 1.2% hits; Potency, µM (titrated, usually from 57.9 µM), inactives show at the top dose signal change, negative = less light; human cells with a luciferase reporter of 2A StopGo recoding; control for the full effect not named in the record; active = well fitted falling curve with a large enough effect; inconclusive = small, poorly fitted or top-dose-only effect; inactive = no such curve, though single readings can be large or run the other way; tested in HEK293T cells; further: on the % scale 0 is the no-effect control and ±100 the full control effect; nearly all actives have a fitted effect of over 45% in size; luciferase light after 4 h
NS1 function inh: inhibitors of influenza NS1 protein function; S. cerevisiae slowed by influenza A NS1, growth recovery by OD600; Potency, µM (series often up to 46.1 µM), without a hit: top-dose activity, positive = more growth; 270,000 compounds, 0.4% hits; further: actives are rising curves; nearly all actives have a fitted effect of over 50% in size
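Read-out: OD600 growth recovery of NS1-expressing budding yeast. Cells grown overnight at 30C in -URA glucose medium, washed, resuspended and diluted 1:100 in 2% galactose assay medium, pH 6.0. Same strain lacking NS1 served as positive control.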
MARV entry inh: Marburg virus entry inhibition | 300,000 compounds, 1.8% hits | Potency, µM (doses to about 37.8 µM), inactives show top-dose activity change, negative = inhibition, usual class: inhibitors | Marburg virus pseudotyped entry inhibition, cell reporter; control for the full effect not named in the record; about a third of the inactives were read at about 46 µM | AID 540276; active = well fitted inhibition curve with a large enough effect; inconclusive = small, poorly fitted or top-dose-only effect, or effect the other way; inactive = flat fitted curve, though single readings scatter; tested in HEK293 cells; about a fifth of its hits are not listed in these tables; further: on the % scale 0 is the no-effect control and ±100 the full control effect; luciferase read-out
RE007 growth inh: less growth of the S. pombe RE007 Vpr strain. S. pombe RE007 Vpr strain, BacTiter-Glo ATP luminescence, 24 h; control for the full effect not named in the record. Potency, µM (top dose mostly 92.2 µM), inactives show top-dose activity change, negative = less growth. 360,000 compounds, 0.21% hits. AID 651644; active = well fitted falling curve with a large enough effect; inconclusive = small, poorly fitted or top-dose-only effect; inactive = no such curve, though single readings can be large or run the other way;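 further: on the % scale 0 is the no-effect control and ±100 the full control effect; nearly all actives have a fitted effect of over 50% in size; the assay follows cell death caused by Vpr and the record does not say whether a fall means rescue or toxicity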
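Fission yeast strain RE007, carrying one chromosomally integrated HIV-1 vpr copy, was seeded at OD 0.01 in PMG+AL medium with 23 nL pinned compound. After 24 h at 30 °C and 99% humidity, viability was read by BacTiter-Glo luminescence.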
Cruzain Triton: inhibitors of Trypanosoma cruzi cruzain with detergent; P25779; Potency, µM, without a hit: max response, negative = inhibition, actives largely listed as inhibitors; purified cruzain, Z-FR-AMC fluorescence, 0.01% Triton; 200,000 compounds, 0.43% hits; active means well fitted curve in the direction sought with a large enough effect; inconclusive means small, poorly fitted or top-dose-only effect, or another doubt; inactive means no such curve, though single readings can be large; an effect the other way counts as inactive or inconclusive;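 further: plate controls were neutral wells for no effect and buffer without enzyme for full effect; nearly all actives have a fitted effect of over 40% in size; top concentration of the series not given in the record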
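Enzyme 1.5 nM, Z-FR-AMC 2 uM, NaOAc 100 mM pH 5.5, DTT 5 mM, Triton X-100 0.01%; 15 min RT compound preincubation; kinetic ex360/em450, 60 s delta.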
* hit, by the source's call; ? = inconclusive; / = not tested or not shown; & = joins results of further samples; [ ] = another dose, or the depositor's remark. Unless noted, the call rests on the fitted dose curve; in most records, active means well fitted rising curve with a large enough effect; inconclusive means small, poorly fitted or top-dose-only effect; inactive means no such curve, though single readings can be large or run the other way. Potency means the concentration at half of the fitted maximal effect.

SMILES	Cruzain noTriton	Lassa entry inh	SARS PLP yeast	2A StopGo	NS1 function inh	MARV entry inh	RE007 growth inh	Cruzain Triton
CCOc1ccc(-c2nnc(NC(=O)Cc3cc(OC)c(OC)c(OC)c3)o2)cc1	/	/	0%	22%	-4%	/	-5%	/
O=C(Nc1ccc(C(=O)O)cc1)/C(=C\c1ccco1)NC(=O)c1ccc(Br)o1	/	7%	-15%	7%	7%	1%[46.1 µM]	-4%	/
Cn1c(NC(=O)c2ccc(Br)o2)cc(=O)n(C)c1=O	-3%	0%	2%	-18%	-4%	-10%&-10%	26%	-7.3%
COc1nc(NCCc2ccc(OC)c(OC)c2)nc(NC(C)(C)CO)n1	2%	-26%	9%	?	1%	6%	1%	-0.1%
COC(=O)C1=C(C)N(CC2CCCO2)C(=O)/C1=C\c1ccc(O)cc1 (stereo not given)	8%	-2%	-3%	0%	-2%	6%[46.1 µM]	-9%	0.3%
Cc1ccc(S(=O)(=O)N2CCN(S(=O)(=O)c3cccs3)CC2)cc1	/	-9%	1%	-2%	-23%	-9%	-5%	/
CC1CCN(Cc2ccc(-c3nn[nH]n3)cc2)CC1	-3%	6%	4%	-20%	-6%	10%	-1%	2.4%
CC(=O)c1c(C)oc2c(Cl)cc(NS(=O)(=O)c3cc(C)c(C)cc3C)cc12	5%	7%[46.1 µM]	/	-4%	/	-1%[46.1 µM]	/	3.6%
O=C1OC(Nc2nc3ccccc3s2)c2ccccc21 (stereo not given)	0%	24%	-2%	26%	-11%	13%	-20%	-2.4%
CCOc1cc(/C=N/N=C2/NC(=O)C(CC(=O)O)S2)ccc1OS(=O)(=O)c1ccc(C)cc1 (stereo not given)	/	-19%[46.1 µM]	0%	10%	17%	-1%[46.1 µM]	0%	/
Cc1cc2oc(=O)cc(CN3CCOCC3)c2cc1C	-9%	7%	3%	16%	-5%	?	-12%	0.0%
CC(C)(C)OC(=O)N1CCN(CCNC(=O)c2ccccc2)CC1	/	/	-2%	-21%	-2%	-6%	4%	/
Cc1ccc2nc3c(cc(C(N)=S)c(=N)n3CCCOC(C)C)c(=O)n2c1	22%	-2%	-2%	12%	5%	-28%	-12%	?
Cn1c(=O)c2c(ncn2CC(=O)NC(C)(C)C)n(C)c1=O	0%	0%	0%	/	-1%	-10%	-5%	9.0%
CCOc1ccc2[nH]c(=O)c(CN(CCc3ccccc3)C(=O)c3cnccn3)cc2c1	-11%	-7%	1%	0%	2%	5%	12%	-4.8%
CCCCOn1c(C)c(C(=O)OCC)c2c3nonc3ccc21	/	-7%	/	10%	-14%	-5%	-10%	/
OC1(c2ccccc2F)CCN(Cc2nnnn2Cc2ccc(F)cc2)CC1	/	0%	0%	-11%	-9%	?	0%	/
COC(=O)c1c(C(=O)OC)c(-c2ccccc2)n2c1CS(=O)C2 (stereo not given)	-4%	-3%	12%	-1%	-3%	7%	-1%	6.7%
CCOc1ccccc1/C=N/N1CCN(Cc2ccccc2)CC1	/	/	-3%	-11%	18%	/	-15%	/
CCNc1nc(NCC)nc(OCCOC(=O)COc2ccc(Cl)cc2Cl)n1	12%	-2%	5%	-12%	-4%	-2%	14%	-7.2%
COc1cc(C(=O)Oc2cc(C)[nH]c(=O)c2[N+](=O)[O-])cc(OC)c1OC	1%	-8%	3%	-13%	-12%	1%	4%	-2.4%
Cn1c(=O)c2c(nc(NCc3ccccc3)n2Cc2ccccc2)n(C)c1=O	-21%	-26%[46.1 µM]	/	-29%	/	6%[46.1 µM]	/	-4.9%
Cc1ccc(CCC(=O)Nc2ncc(Cc3cccc(Cl)c3Cl)s2)o1	13µM*	?	-10%	-21%	-2%	?	/	0.7%
CCn1c(=NC(=O)CCS(=O)(=O)c2ccccc2)sc2cccc(OC)c21	/	?	0%	20µM*	1%	?	-13%	/
Cc1nc2ccccc2c2nc(N)nn12	-10%	-11%	-3%	-14%	-1%	17%	-1%	-1.7%
SMILES	Cruzain noTriton	Lassa entry inh	SARS PLP yeast	2A StopGo	NS1 function inh	MARV entry inh	RE007 growth inh	Cruzain Triton
Cc1cccc(-c2n[nH]c(=S)n2/N=C/c2cccs2)c1	/	/	-5%	-17%	-3%	/	0%	/
Cc1cc2c(cc1Cl)N(C(=O)Nc1ccnc3ccccc13)CC2	6%	-6%	/	/	-17%	?	/	-3.7%
C#CC[N+]1(CC#Cc2ccccc2)CCCC1	-15%	5%	2%	-29%	9%	20%	-1%	5.0%
Fc1ccc(-n2cc(-c3ccccc3)c3c(N4CCOCC4)ncnc32)cc1	/	?	-9%	?	/	?	-6%	/
CCCCNC(=O)C1CCCN1S(=O)(=O)c1cccc2nsnc12 (stereo not given)	/	3%	1%	-9%	-10%	8%[46.1 µM]	-2%	/
COCc1cc(C)nc(N2CCNCC2)c1C#N	-5%	9%	5%	8%	5%	-1%	3%	2.3%
Cc1ccc(NC(=O)CNC(=O)Cc2cccc3ccccc23)nc1	/	22%[46.1 µM]	-1%	-15%	9%	-1%[46.1 µM]	-2%	/
CC(C)(C)c1cc(C(=O)NNS(=O)(=O)c2ccccc2)n[nH]1	/	/	-2%	?	-1%	/	-2%	/
COc1ccc(C(=O)C2CCCN(Cc3nc4ccccc4nc3C)C2)cc1OC (stereo not given)	/	4%[46.1 µM]	-3%	4%	-5%	?	-19%	/
O=C(NCCc1ccncc1)Nc1ccc(Cl)cc1	-15%	3%	0%	0%	4%	?	-26%	-8.4%
CC1(C)CC(=O)c2cc(-c3nc(-c4ccc(Cl)cc4)cs3)c(=O)[nH]c2C1	0%	15%[46.1 µM]	/	-5%	/	-10%[46.1 µM]	/	-0.1%
CSCCC(NC(=O)c1ccco1)C(=O)N1CCC(C(N)=O)CC1 (stereo not given)	/	6%	?	-14%	/	24%	-1%	/
CCN(C(=O)COC(=O)c1cc2c(s1)CCCCC2)C1CCS(=O)(=O)C1 (stereo not given)	/	-5%	0%	-10%	1%	26%	0%	/
CC(=O)c1cccc(NC(=O)c2cccc(NC(=O)c3ccco3)c2)c1	/	-28%	-3%	-10%	11%	-1%	3%	/
COc1cccc(-c2nc(CS(=O)(=O)CC(=O)NCCc3ccc(Cl)cc3)c(C)o2)c1	?	-4%[46.1 µM]	/	0%	/	-21%[46.1 µM]	/	-7.8%
CCc1nc(CN2CCN(Cc3ccc(F)c(F)c3)C(CCO)C2)c(C)[nH]1 (stereo not given)	/	/	1%	-11%	-2%	/	-4%	/
CC(=O)N[C@@H](Cc1c[nH]c2ccccc12)C(=O)OCC(=O)Nc1ccc2c(c1)OCO2	/	-2%[46.1 µM]	/	18%	/	7%[46.1 µM]	6%	/
Cc1ccc(S(=O)(=O)N2CCCCC2)cc1NC(=O)COC(=O)Cc1cccc2ccccc12	?	-21%	-6%	-23%	22%	?	1%	-3.3%
O=C(CN1C2CCC1CC(O)(c1cccnc1)C2)Nc1ccc2c(c1)OCO2 (stereo not given)	-10%	15%	-2%	2%	4%	-5%	11%	-3.6%
COc1cccc(CN2CC(C(=O)NCc3ccc(C)o3)CCC2=O)c1 (stereo not given)	/	/	-1%	20%	-5%	/	-19%	/
COc1cccc(-c2nnn(CC(=O)N(CC(C)C)C3CCS(=O)(=O)C3)n2)c1 (stereo not given)	/	-3%[46.1 µM]	-1%	4%	/	?	5%	/
Cn1cccc1C(=O)C(=O)Nc1cc(Cl)cc(Cl)c1	-25%	?	-5%	45%[activator]	-22%	?	?	-0.4%
CCc1ccc(N2C(=O)C(Cl)=C(N3CCOCC3)C2=O)cc1	-1%	-3%	8%	-7%	17%	?	3%	-22%
Cc1cc(C)cc(OCC(=O)NNC(=O)c2cc3ccccc3o2)c1	-11%	-6%[46.1 µM]	-24%	0%	-50%	6%	4%	-2.3%
COc1ccc2nc(NC(=O)CSc3nc(C)cc(=O)[nH]3)sc2c1	9%	12%	0%	10%	10%	?	1%	-16%
SMILES	Cruzain noTriton	Lassa entry inh	SARS PLP yeast	2A StopGo	NS1 function inh	MARV entry inh	RE007 growth inh	Cruzain Triton
CC(=O)Nc1ccc(S(=O)(=O)NCC2CCC(C(=O)NCCCN3CCCC3=O)CC2)cc1 (stereo not given)	-7%	11%	-1%	-16%	-1%	4%&4%	16%	2.6%
CCOC(=O)c1[nH]c(C)c(C(=O)N2CCN(c3ccccc3OC)CC2)c1C	/	21%[46.1 µM]	1%	-5%	/	-24%[46.1 µM]	-8%	/
O=C(O)c1cc(NC(=S)NC(=O)C(c2ccccc2)c2ccccc2)ccc1Cl	/	-12%[46.1 µM]	0%	30%	13%	-2%[46.1 µM]	-3%	/
CCN1CCN(C(=O)CSc2nc3c(c(=O)n(C)c(=O)n3C)n2C)CC1	/	2%[46.1 µM]	-7%	11%	4%	-18%[46.1 µM]	-12%	/
COc1ccc(-c2sc(NC(C)=O)nc2-c2ccccc2)cc1	14%	-2%	-4%	-22%	13%	-1%	-5%	-10%
Cc1c(C)n2c(SCC(=O)NC3CCCCC3)nnc2[nH]c1=O	/	-12%	-1%	-15%	/	-8%[46.1 µM]	-12%	/
CCN1CCN(Cc2ccc(NC(=O)c3cc(NC(=O)c4cnn(-c5ccccc5)c4N)cc(OC)c3)cc2C(F)(F)F)CC1	/	/	0%	-10%	0%	/	-10%	/
Cc1ccc(NC(=O)C2CCCN(C(=O)c3ccc(Cl)cc3)C2)c(C)c1 (stereo not given)	/	1%	-1%	-10%	/	13%[46.1 µM]	9%	/
Cc1cc(C)c(NC(=O)CSc2nc3ccc(NC(=O)CSc4nnnn4-c4ccccc4)cc3s2)c(C)c1	?	5%&2%	0%	0%	18%	-28%&4%	-6%	0.2%
Cc1nc2cccnc2n1-c1cccc(C(=O)N2CCN(c3ccc(Cl)cc3)CC2)c1	?	?	/	13µM*	/	/	/	-6.8%
CCCOc1ccc(NC(=O)CC2C(=O)N(c3cccc(C)c3)C(=O)N2CCc2ccncc2)cc1 (stereo not given)	?	-3%[46.1 µM]	/	-12%	/	/	/	-5.7%
COc1ccc(CNC(=O)c2ccc(NC(=O)N3CCSc4ncccc43)cc2)cc1OC	-1%	0%[46.1 µM]	/	-6%	/	/	/	-9.5%

Rows are unselected; about 4.7% have a hit in one of these screens.
